NS1 inh: qHTS Assay for Inhibitors of Influenza NS1 Protein Function; Potency, µM (series often up to 46.1 µM), without a hit: top-dose activity, positive = more growth; actives 0.4% (n = 270,000); S. cerevisiae slowed by influenza A NS1, growth recovery by OD600; AID 2326, 2010; further: actives are rising curves; nearly all actives have a fitted effect of over 50% in size
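In this qHTS, NS1 from influenza A is expressed in budding yeast, where it slows growth. Cells are switched from glucose to 2% galactose medium (pH 6.0, -URA), treated with compound, and growth recovery is read at OD600.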
Cruzain inh noDet: qHTS Assay for Promiscuous and Specific Inhibitors of Cruzain (without detergent). Cruzipain (Trypanosoma cruzi), P25779. purified cruzain, Z-FR-AMC fluorescence, no detergent. Potency, µM, without a hit: max response, negative = inhibition, hits mostly inhibitors. actives 2.3% (n = 200,000). AID 1476, 2009; active means well fitted curve in the direction sought with a large enough effect; inconclusive means small, poorly fitted or top-dose-only effect, or another doubt; inactive means no such curve, though single readings can be large; an effect the other way counts as inactive or inconclusive;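 further: plate controls were enzyme without inhibitor for no effect and buffer without enzyme for full effect; nearly all actives have a fitted effect of over 40% in size; top concentration of the series not given in the record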
Target sequence (P25779 123-467 limits assumed): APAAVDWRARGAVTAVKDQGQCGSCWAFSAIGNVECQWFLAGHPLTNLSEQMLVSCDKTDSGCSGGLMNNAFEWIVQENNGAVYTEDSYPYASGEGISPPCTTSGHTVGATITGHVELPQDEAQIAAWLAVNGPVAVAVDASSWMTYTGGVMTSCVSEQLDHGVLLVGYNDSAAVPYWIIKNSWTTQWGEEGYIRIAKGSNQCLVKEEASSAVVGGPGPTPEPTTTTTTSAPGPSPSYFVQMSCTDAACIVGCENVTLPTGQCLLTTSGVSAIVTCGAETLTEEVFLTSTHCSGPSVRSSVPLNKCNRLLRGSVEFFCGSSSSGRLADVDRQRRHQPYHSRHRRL
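Detergent-free condition (0.00005% Triton X-100) in acetate buffer pH 5.5 with DTT. 1.5 nM enzyme and compound were pre-mixed 15 min, then 2 uM Z-FR-AMC substrate added; reaction progress from fluorescence change between first and third reads (60 s).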
Cruzain Triton: qHTS Assay for Promiscuous and Specific Inhibitors of Cruzain (with detergent). purified cruzain, Z-FR-AMC fluorescence, 0.01% Triton. AID 1478, 2009. actives 0.43% (n = 200,000). Cruzipain (Trypanosoma cruzi), P25779. Potency, µM, without a hit: max response, negative = inhibition, usual class: inhibitors; active means well fitted curve in the direction sought with a large enough effect; inconclusive means small, poorly fitted or top-dose-only effect, or another doubt; inactive means no such curve, though single readings can be large; an effect the other way counts as inactive or inconclusive;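 further: plate controls were neutral wells for no effect and buffer without enzyme for full effect; nearly all actives have a fitted effect of over 40% in size; top concentration of the series not given in the record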
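Z-FR-AMC hydrolysis (2 uM substrate) by cruzain (1.5 nM) monitored kinetically at ex 360/em 450 nm after 15 min room-temperature compound exposure; 0.01% Triton X-100, pH 5.5, 5 mM DTT.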
Lassa entry inh: qHTS for Inhibitors of binding or entry into cells for Lassa Virus | actives 1.2% (n = 300,000) | Lassa virus pseudotype entry inhibition, cell reporter; control for the full effect not named in the record | Potency, µM (doses to about 37.9 µM), inactives show top-dose activity change, negative = inhibition, hits mostly inhibitors; active means well fitted inhibition curve with a large enough effect; inconclusive means small, poorly fitted or top-dose-only effect, or effect the other way; inactive means flat fitted curve, though single readings scatter; tested in HEK293 cells; further: on the % scale 0 is the no-effect control and ±100 the full control effect; nearly all actives have a fitted effect of over 50% in size; luciferase read-out
RE007 growth inh: qHTS Assay for Inhibitors of the HIV-1 protein Vpr | S. pombe RE007 Vpr strain, BacTiter-Glo ATP luminescence, 24 h; control for the full effect not named in the record | Potency, µM (doses to about 92.2 µM), for inactives: top-dose activity change, negative = less growth | actives 0.21% (n = 360,000); active = well fitted falling curve with a large enough effect; inconclusive = small, poorly fitted or top-dose-only effect; inactive = no such curve, though single readings can be large or run the other way;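 further: on the % scale 0 is the no-effect control and ±100 the full control effect; nearly all actives have a fitted effect of over 50% in size; the assay follows cell death caused by Vpr and the record does not say whether a fall means rescue or toxicity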
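Fission yeast RE007 carrying one integrated HIV-1 vpr copy, seeded at OD 0.01 in PMG+AL medium with 23 nL pinned compound. Grown 24 h at 30 degrees; viability read by BacTiter-Glo luminescence after 5 min.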
SARS PLP yeast: qHTS of Yeast-based Assay for SARS-CoV PLP; S. cerevisiae expressing SARS-CoV PLpro, growth rescue; control for the full effect not named in the record; Potency, µM (top dose mostly 32.9 µM), for inactives: top-dose activity, positive = growth rescue; actives 0.19% (n = 330,000); further: 0% is about no effect; nearly all actives have a fitted effect of over 55% in size; growth read by luminescence after 48 h
2A StopGo: High Throughput Screening for Foot and Mouth Disease Virus Antivirals; Potency, µM (top dose mostly 57.9 µM), for inactives: at the highest dose signal change, negative = less light; human cells with a luciferase reporter of 2A StopGo recoding; control for the full effect not named in the record; AID 1159524, 2015; actives 1.2% (n = 410,000); active = well fitted falling curve with a large enough effect; inconclusive = small, poorly fitted or top-dose-only effect; inactive = no such curve, though single readings can be large or run the other way; tested in HEK293T cells; further: on the % scale 0 is the no-effect control and ±100 the full control effect; nearly all actives have a fitted effect of over 45% in size; luciferase light after 4 h
MARV entry inh: qHTS for inhibitors of binding or entry into cells for Marburg Virus; Potency, µM (top dose mostly 37.8 µM), without a hit: top-dose activity change, negative = inhibition, hits mostly inhibitors; Marburg virus pseudotyped entry inhibition, cell reporter; control for the full effect not named in the record; about a third of the inactives were read at about 46 µM; actives 1.8% (n = 300,000); active = well fitted inhibition curve with a large enough effect; inconclusive = small, poorly fitted or top-dose-only effect, or effect the other way; inactive = flat fitted curve, though single readings scatter; tested in HEK293 cells; about a fifth of its hits are not listed in these tables; further: on the % scale 0 is the no-effect control and ±100 the full control effect; luciferase read-out
Starred values were filed as active, the others as inactive; ? = inconclusive; . = not tested or not shown; & = joins results of further samples; [ ] = another dose, or the depositor's remark. Unless noted, the call rests on the fitted dose curve; in most records, active means well fitted rising curve with a large enough effect; inconclusive means small, poorly fitted or top-dose-only effect; inactive means no such curve, though single readings can be large or run the other way. Potency means the concentration at half of the fitted maximal effect. The order is random; about 4.7% have a hit in one of these screens.

The line under a structure holds: NS1 inh, Cruzain inh noDet, Cruzain Triton, Lassa entry inh, RE007 growth inh, SARS PLP yeast, 2A StopGo, MARV entry inh
> Cc1c[nH]c(=O)c([N+](=O)[O-])c1
  0%, ., ., ., -8%, 0%, -12%, .
> Cc1onc(-c2ccccc2)c1C(=O)N/N=C/C(Br)=C/c1ccccc1
  14%, -3%, -8.5%, ?, 3%, -63%, -9%, ?
> COc1ccc(-c2nc(NC(=O)c3[nH]c(C)c(C(C)=O)c3C)sc2C)cc1
  ., ., ., -2%, 7%, 1%, ?, ?
> OC(COc1cccc2ccccc12)CN1CCN(c2ccc(Cl)cc2)CC1 (stereo not given)
  0%&-43%, ., ., ., -17%, 1%&-4%, -20%, .
> CC(=O)c1cccc(OCc2cc(C(=O)N3CC4C[C@@H]5CC3C[C@H](C4)C5)no2)c1
  -16%, ., ., ., -5%, -4%, -9%, .
> C=CCc1cc(CN2CC(C)OC(C)C2)c(O)c(OC)c1 (stereo not given)
  ., ., ., -28%[46.1 µM], -18%, ., -13%, -29%[46.1 µM]
> Cc1cccc(N2CCN(C(=O)c3ccccc3OCc3c(C)noc3C)CC2)c1C
  ., ., ., ?, 21%, 1%, -28%, ?
> CCCN1C(=O)C(Cc2nc3ccccc3c(=O)n2CC)c2ccccc21 (stereo not given)
  ., 9%, -2.5%, 2%[46.1 µM], ., ., -21%, 0%[46.1 µM]
> CC(C)CNC(=S)Nc1ccc(F)cc1
  6%, 4%, -2.6%, 16%, -7%, 1%, 45%[activator], ?
> Cc1sc(NC(=O)c2ccco2)c(CN2CCN(c3ccccn3)CC2)c1C
  -128%, 0%, -7.5%, -9%, 8%, -14%, ?, ?
> O=C(Nc1ccccc1)Nc1cc(S(=O)(=O)N2CCOCC2)ccc1N1CCCC1
  18%, -3%, -14%, 17%, 6%, -17%, -24%, 8%
> O=C(NCCC(=O)N1CCN(S(=O)(=O)c2ccc(Cl)cc2)CC1)Nc1ccccc1
  ., ., ., -9%, -3%, -4%, -25%, ?
> COc1ccc(-c2cc(-c3ccco3)[nH]c(=O)c2C#N)cc1
  ?, ., ., ., 0%, 3%, -11%, .
> COc1ccc(C2C(C(=O)c3cccs3)=C(O)C(=O)N2c2cccc(C)n2)cc1 (stereo not given)
  0%, ., ., 12%, 4%, -1%, -3%, 15%[46.1 µM]
> Cc1ccc(C(=O)NC(=S)NCc2ccco2)cc1
  ., ., ., 16%, -25%, 15%, 26%, -15%[46.1 µM]
> Cc1ccc(C2CC(=O)C=C(NCc3ccccc3)C2)cc1 (stereo not given)
  -6%, ., ., ?, 7%, 0%, -18%, -30%
> O=C(Cn1cnc([N+](=O)[O-])n1)c1ccccc1
  6%, ., ., 17%, -7%, ., -11%, 3%
> Cc1cc(OCCN2CCCC2)cc(C(C)C)c1
  13%, 18%, -1.9%, -21%, -11%, -5%, -10%, ?
> CN1CCC(N2CC3CC(C2)c2cccc(=O)n2C3)CC1 (stereo not given)
  -14%, -6%, 4.7%, 20%, 2%, 4%, 7%, -9%
> CCOC(=O)CC(NC(=O)c1cccc2c1C(=O)N(Cc1cccnc1)C2)c1ccc(OCC)c(OC)c1 (stereo not given)
  ., ., ., -1%[46.1 µM], -7%, 1%, 0%, -7%[46.1 µM]
> CCCCNC(=O)c1onc(CSc2ccc(C)c(C)c2)c1C(=O)O
  0%, 0%, -3.7%, ., -4%, -2%, -1%, .
> O=C(NCCc1ccccc1)c1ccc2c(c1)OCCCO2
  -25%, ., ., ?, -2%, -2%, 1.1µM*, ?
> CC(C)(C)c1ccc2c(c1)OC(C(=O)N/N=C\c1ccc(-c3cccc(C(=O)O)c3)o1)CO2 (stereo not given)
  -10%, ., ., 11%[46.1 µM], -8%, -2%, 18%, ?
> Cc1c(C(=O)NCc2ccc3c(c2)OCO3)oc2ccccc12
  -18%, -3%, -6.9%, -26%, -27%, -16%, 15%, ?
> Cc1n[nH]c(C)c1CCNC(=O)C1CCC(=O)N(Cc2ccccc2F)C1 (stereo not given)
  24%, ., ., 2%, 0%, 4%, -6%, 14%
> Cc1cc(C)c(N(C(=O)CN2C(=O)c3ccccc3S2(=O)=O)C(C(=O)NCC2CCCO2)c2ccc(F)cc2)c(C)c1 (stereo not given)
  2%, ?, -3.3%, -30%&-17%, -21%, -7%, -14%, ?
> CCCN(CCC)C(=O)Cn1ccc(=N)c2ccccc21
  -2%, -14%, -1.7%, 5%, 1%, -5%, 7%, -3%
> CCc1ccc(-c2c(C)sc(NC(C)=O)c2C(N)=O)cc1
  -32%, 0%, -6.1%, 4%, 59%, -8%, ?, -21%
> C=CCn1c(-c2sc(-c3ccccc3)nc2C)n[nH]c1=S
  ., ., ., -1%, 7%, 5%, -5%, 1%
> Cc1ccc(-c2nc(CS(=O)(=O)CC(=O)N3CCOCC3)c(C)o2)cc1
  1%, ., ., ., 1%, -3%, -25%, .

A draw from above in order of SMILES length, ascending:
The line under a structure holds: NS1 inh, Cruzain inh noDet, Cruzain Triton, Lassa entry inh, RE007 growth inh, SARS PLP yeast, 2A StopGo, MARV entry inh
> Cc1c[nH]c(=O)c([N+](=O)[O-])c1
  0%, ., ., ., -8%, 0%, -12%, .
> Cc1c(C(=O)NCc2ccc3c(c2)OCO3)oc2ccccc12
  -18%, -3%, -6.9%, -26%, -27%, -16%, 15%, ?
> O=C(NCCC(=O)N1CCN(S(=O)(=O)c2ccc(Cl)cc2)CC1)Nc1ccccc1
  ., ., ., -9%, -3%, -4%, -25%, ?
> CC(=O)c1cccc(OCc2cc(C(=O)N3CC4C[C@@H]5CC3C[C@H](C4)C5)no2)c1
  -16%, ., ., ., -5%, -4%, -9%, .
> CCOC(=O)CC(NC(=O)c1cccc2c1C(=O)N(Cc1cccnc1)C2)c1ccc(OCC)c(OC)c1 (stereo not given)
  ., ., ., -1%[46.1 µM], -7%, 1%, 0%, -7%[46.1 µM]

(continued)
The line under a structure holds: NS1 inh, Cruzain inh noDet, Cruzain Triton, Lassa entry inh, RE007 growth inh, SARS PLP yeast, 2A StopGo, MARV entry inh
> COc1cc(C(=O)Nc2cc(Cl)ccc2C)c(-n2cnnn2)cc1OC
  1%, -6%, 3.9%, 2%, -7%, -1%, -22%, -27%
> O=C1CC(N2CCc3ccccc32)C(=O)N1c1ccc(F)cc1 (stereo not given)
  3%, ., ., 0%[46.1 µM], 9%, 0%, 7%, 8%[46.1 µM]
> COc1ccc(C2C=C(c3ccc(C)c(C)c3)Nc3ncnn32)c(OC)c1OC (stereo not given)
  -75%, -1%, -7.0%, ., -7%, 2%, -26%, 5%
> COc1ccc(S(=O)(=O)N(CC(=O)N2CCN(c3ccccc3)CC2)c2ccccc2)cc1
  7%, ?, -0.3%, ?, -22%[3.69 µM], -2%, -22%, 0%
> COc1ccc(/C=C/CN2CCN(Cc3ccc(F)cc3)C(CCO)C2)cc1 (stereo not given)
  4%, ., ., ., -1%, 0%, ?, ?
> Cc1ccc2oc(-c3cc(NC(=O)Cc4ccccc4)ccc3Cl)nc2c1
  ., -2%, -3.8%, ?, ., ., 46%[activator], 10%[46.1 µM]
> CCCN(CCC)CCCNC(=O)C1c2cc(OC)c(OC)cc2C(=O)N(C)C1c1cccs1 (stereo not given)
  5%, -6%, 1.2%, 15%, 10%, 1%, 5%, -1%
> Cc1ccc(-c2nnc(NC(=O)c3ccc4c(c3)OCCO4)o2)c(C)c1
  ., 0%, 3.5%, 17%[46.1 µM], ., ., -8%, .
> O=C(N[C@@H](Cc1ccccc1)C(=O)O)c1ccncc1
  2%, ., ., ., 8%, 1%, -9%, .
> O=C(Nc1ccc(Cl)cc1)c1cccc(N2C(=O)C3C4CCC(C4)C3C2=O)c1 (stereo not given)
  -3%, -13%, -4.2%, ?, ., -17%, 32µM*, ?
> CCc1cccc(NC(=O)Cn2c(C(=O)OC)cc3sc(Cl)cc32)c1
  ., 11%, 0.4%, ., ., ., -2%, -12%[46.1 µM]
> O=Cc1ccc(OCc2nnc(-c3ccccc3Br)o2)cc1
  -20%, ., ., 29%, 15%, -2%, 19%, ?
> CC1CN(S(=O)(=O)c2ccc(F)cc2)CN1C(=O)N1CCOCC1 (stereo not given)
  1%, ., ., ., 14%, 1%, 1%, 7%[46.1 µM]
> CCCCN(Cc1ccco1)C(=O)c1cc2c(s1)-c1c(C)cccc1OC2
  ., ?, ?, ., ., ., 24%, 16%[46.1 µM]
> COc1cc(NC(=O)c2ccc(Cl)cc2)c2ncccc2c1
  -2%, ., ., ., -1%, -1%, -24%, .
> CCCNC(=O)c1c(C)nn(-c2cccc(C)c2)c1-n1cccc1
  ., -11%, -0.6%, ?, ., ., -12%, .
> O=C(C1=C[C@H](c2csc3ccccc23)C[C@H](OCCCCO)O1)N1CCN(Cc2ccccc2)CC1
  -8%, ., ., ., -12%, -2%, ?, .
> Cc1ccc(O)c(C(=O)CC(=O)c2ccc(C(C)(C)C)cc2)c1
  21%, ., ., ., -1%, 1%, 3%, .
> CCn1c(SCC(=O)Nc2nccs2)nnc1C1CC1
  3%, ., ., ., 24%, -2%, -7%, .
> CC(Oc1ccc(Br)cc1)C(=O)Nc1ncn[nH]1 (stereo not given)
  ., 11%, 0.8%, 9%[46.1 µM], ., ., 10%, 19%[46.1 µM]
> Cc1ccc(N(C)C(=O)C2CCN(S(=O)(=O)c3cn(C)cn3)CC2)cc1
  ., 5%, 1.1%, 8%[46.1 µM], ., ., 4%, .
> c1ccc(CSc2nc3ncncc3[nH]2)cc1
  -1%, ., ., ., -6%, -1%, 0%, .
> Cc1cc(OC(=O)c2ccccc2Cl)cc(=O)n1C
  -17%, -4%, 3.0%, 5%, -4%, -1%, ?, 6%
> CCOc1ccc(NC(=O)c2cccc(N3CCCS3(=O)=O)c2)cc1
  ., 5%, 2.0%, 23%[46.1 µM], ., ., -1%, .
